VCAM-1 rise: boosters of cytokine-driven VCAM-1 levels – cell-based, plate reader, pooled HUVEC, TNFa stimulus (AID 455). augmentation, % at 5 µM. HUVEC TNFa-induced VCAM-1 immunofluorescence, plate reader; numbers were filed only for top-ranked candidate wells. 10,000 tested, 0.2% active;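 active means a compound raising TNF-alpha-driven VCAM-1 surface staining, with its hit status upheld on visual or statistical review; inactive means the rest, including hits rejected on review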;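 further: 0% = TNFa with vehicle and 100% = strongest image-checked hit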
26S disassembly: blocks ATP-dependent breakdown of the yeast 26S proteasome; anti-FLAG beads, GFP-proteasome disassembly, flow cytometry; inhibition of disassembly, % (test concentration not listed); 24,000 tested, 0.2% active; AID 751;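 active means above 40%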;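 further: plate controls were ATP control with full disassembly for no effect and ATP-gamma-S intact proteasomes for full effect; higher percent means more bead fluorescence retained so stronger block of disassembly; stock transfer was 100 nL into about 10 µL; wells with too few beads may also be inconclusive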
The depositor's hits bear a star; i = inactive; nt = not tested or not shown.

SMILES | VCAM-1 rise | 26S disassembly
Cc1ccc(C(=O)N2CCN(C(=O)c3ccc(C)c(C)c3)C(C)C2)cc1C (configuration not stated) | i | 0.5
CCOC(=O)N1CCN(C(=O)c2ccc(S(=O)(=O)c3ccc(C)cc3)c(NC(C)=O)c2)CC1 | nt | -0.3
CCOC(=O)c1sc2nc(N3CCCC3)c3c(c2c1N)CC(C)(C)OC3 | i | 2.4
COc1ccc(/C(O)=C2/C(=O)C(=O)N(CC3CCCO3)C2c2cccc(OC)c2)cc1 (configuration not stated) | i | 0.6
CC(=O)c1ccc(N2CCN(C(=O)c3cc4c(=O)n(C)c5ccccc5c4n3C)CC2)cc1 | nt | -1.1
COc1ccc(N2CCN(c3ccc(NC(=O)c4ccc5c(c4)OCO5)cc3C#N)CC2)cc1 | nt | 0.9
Cc1onc(-c2ccccc2Cl)c1C(=O)N(C)C1CCCCC1 | nt | -0.1
COC(=O)C1=C(N)OC2=C(C(=O)CCC2)C1c1cccs1 (configuration not stated) | i | -0.6
COc1cccc(C2N(c3ccc(Cl)cc3)C(=O)C3CCCN32)c1 (configuration not stated) | nt | 6.2
Cn1c2c(c(=O)n(C)c1=O)C(CC(=O)Nc1ccccc1)C(=O)N2 (configuration not stated) | i | 1.5
O=C1C(c2ccc(F)cc2)N(Cc2ccc3c(c2)OCO3)C(=O)CN1C1CCCC1 (configuration not stated) | nt | 0.9
O=C(NCCN1CCOCC1)c1cc(-c2cccs2)on1 | nt | 0.3
CCOC(=O)c1sc2nc(SCC#N)n(CC3CCCO3)c(=O)c2c1C (configuration not stated) | nt | 3.8
CCc1ccccc1NS(=O)(=O)c1ccc2[nH]cc(C(=O)NCC3CCCO3)c(=O)c2c1 (configuration not stated) | nt | 0.8
O=C(NCc1cccnc1)c1ccc2c(c1)OCO2 | i | -0.3
CCOC(=O)CS(=O)(=O)c1nc(-c2ccccc2)cc(C(F)(F)F)n1 | i | 0.1
O=c1[nH]c(=O)n(CCOc2ccc(Cl)cc2)cc1Br | nt | 0.2
OC(CCCN1CCC(O)(c2ccc(Cl)cc2)CC1)c1ccc(F)cc1 (configuration not stated) | i | 0.5
COc1ccc(N(CC(=O)N2CC=C(c3ccccc3)CC2)S(=O)(=O)c2c(C)noc2C)cc1 | nt | -1.4
Cc1cc(Cl)cc2c1NC(=O)[C@]21[C@@H]2C(=O)N(Cc3ccccc3)C(=O)[C@@H]2[C@@H]2CCCN21 | i | 0.5
COc1cc(C2C3=C(CC(C)(C)CC3=O)Nc3c2c(=O)[nH]c(=O)n3Cc2ccccc2)ccc1O (configuration not stated) | i | 1.2
CCN1CCCC1CNC(=O)Cn1cccc1C(=O)c1ccccc1 (configuration not stated) | nt | -2.3
CCC(C)Oc1ccccc1C1CC(=O)NC2=C1C(=O)CCC2 (configuration not stated) | nt | -2.0
O=C(NCCC1=CCCCC1)C1CCCN(S(=O)(=O)c2cnc[nH]2)C1 (configuration not stated) | nt | -1.3
CCc1cc2c(=O)c(-c3nc4ccccc4[nH]3)coc2c(CN2CCCC(C)C2)c1O (configuration not stated) | nt | 0.9
CC(=O)Nc1cccc(NC(=O)CSc2nnc(Cc3cccn3C)n2CCc2ccccc2)c1 | nt | 0.8
CCOC(=O)N1CCN(S(=O)(=O)c2cc(Br)cc3c2N(C(=O)C2CC2)CC3)CC1 | nt | 3.2
COc1ccc(S(=O)(=O)N2CCC(C(=O)Nc3ccccc3C)CC2)c2cccnc12 | nt | 0.6
CCN(CCCNC(=O)C1CCCN(S(=O)(=O)CC)C1)c1cccc(C)c1 (configuration not stated) | nt | 2.3
CC(=O)CC1OC(=O)C(Br)=C1NCc1ccccc1 (configuration not stated) | nt | 11
CN(C)c1cccc2c(S(=O)(=O)Nc3ccccn3)cccc12 | i | -1.4
COc1cccc(-n2nnc3c(=O)n(CC(=O)N4CCC(Cc5ccccc5)CC4)cnc32)c1 | nt | 1.4
COc1ccc(OC)c(NC(=O)C2CCN(S(=O)(=O)c3cccs3)CC2)c1 | nt | 0.8
CCOC(=O)C1=C(C)N=C2SC(C)C(=O)N2C1c1ccc(OC(C)=O)c(OCC)c1 (configuration not stated) | nt | 0.3
COc1ccc(-c2nc(C3CCCCC3)no2)cc1OC | nt | -1.1
CCCn1c(=O)c2ccccc2n2c(SCc3cc(=O)n4ccsc4n3)nnc12 | i | -0.8
O=C(c1cc2cc(Cl)cc(Cl)c2oc1=O)N1CCOCC1 | i | -1.1
O=C(O)Cc1ccc(-c2ccccc2)cc1 | i | -0.2
O=C(CN1C(=O)C2C3C=CC(C3)C2C1=O)NCCc1ccccc1Cl (configuration not stated) | nt | -3.3
O=C(Nc1cccnc1)Nc1ccccn1 | i | 0.5
COc1ccc(NC(=O)CSC2=C(C#N)C(c3ccco3)C3=C(CCCC3=O)N2)c(OC)c1 (configuration not stated) | i | -0.9
Cc1ccc(NC(=O)CCNS(=O)(=O)c2ccc3c(c2)oc(=O)n3C)cc1C | nt | -1.5
COC(=O)c1cn(NC(=O)c2cnccn2)c(=O)c2ccccc12 | nt | 0.0
CN(C)C(C(=O)NC1CCCCC1)c1ccc(Cl)cc1 (configuration not stated) | nt | -0.6
Cn1c(C(=O)O)c(CC(=O)NCc2cccnc2)c2ccccc21 | nt | -0.5
O=c1oc2ccccc2n1Cc1ccccc1Cl | nt | 1.0
CCCn1c(SCC(=O)Nc2ccccc2C(=O)OCC)nc2c1c(=O)n(C)c(=O)n2C | i | -0.8
CCN(CC)CCOC(=O)C1(C2CCCCC2)CCCCC1 | i | -0.9
COc1cc2nc(C3CCC3)n(NC(=O)C3CCCC(OC)C3)c(=O)c2cc1OC (configuration not stated) | i | 0.8
Cc1c(C(=O)N2CCN(c3ncccn3)CC2)sc2nc3n(c(=O)c12)CCCC3 | nt | 0.3
Cc1csc(NC(=O)C(NS(=O)(=O)c2ccc(Br)s2)c2ccccc2)n1 (configuration not stated) | nt | -2.3
O=C(C1CCC(=O)N1Cc1ccccc1Cl)N1CCN(c2ccc(F)cc2)CC1 (configuration not stated) | nt | -0.4
COc1ccc(CCNc2oc(COc3ccc(Br)cc3)nc2C#N)cc1OC | nt | 2.0
O=C(CSc1nnc2ccccn12)NCCN1C(=O)CSC1=O | i | 1.9
CCN(CC)c1ccc2c(c1)C(=O)N(C)C2=O | i | 2.4
O=C(NCCc1ccc(Cl)cc1)c1nnc(Cc2ccc(Cl)cc2)o1 | nt | -0.9
Nn1c(SCC(=O)Nc2ccccc2)nnc1-c1cccnc1 | i | -3.4
O=c1cc(N2CCc3ccccc3C2)[nH]c(=O)n1-c1ccc(Br)cc1 | nt | -1.1
O=C(C1CCCN(c2nnc(-n3cccc3)s2)C1)N1CCN(c2ccccc2)CC1 (configuration not stated) | nt | 0.1
O=C(NCc1ccccc1)c1cc(=O)nc2sc(-c3ccccc3)nn12 | nt | -0.8
Continued.
SMILES | VCAM-1 rise | 26S disassembly
CCn1ccc(C(=O)Nc2ccc(S(=O)(=O)Nc3ccccc3OC)cc2)n1 | nt | -0.8
CN(C(=O)C1CCOC1)c1nnc(-c2cccnc2)s1 (configuration not stated) | i | -1.5
Cc1ccccc1CSc1nnc(C)c(=O)[nH]1 | i | -0.4
CN(c1ccccc1)c1nc2ccsc2c(=O)s1 | nt | -0.1
O=C(CSc1nnc(Cc2ccccc2)n1C1CCCCC1)N1CCOCC1 | i | -3.0
COc1ccc(-n2c(Cc3cccn3C)nnc2SCC(=O)Nc2cc(C)cc(C)c2)cc1 | nt | 1.9
CCCCc1cc2c(c(NC(C)=O)n1)c(=O)oc1ccccc12 | i | -0.4
OCCOCCn1c(-c2ccccc2)nc(=S)c2c1CCCC2 | nt | -0.7
C=CCn1c(-c2ccc(OC)c(OC)c2)cs/c1=N\c1ccccn1 | nt | -0.1
O=C(O)c1[nH]c2ccccc2c1CC(=O)N1CCOCC1 | nt | 1.2
Cc1cc(C(=O)N2CCCc3ccccc32)no1 | i | -3.0
Cc1cc(/C=N/n2cnnc2)c(C)n1-c1cccc(Cl)c1 | i | 7.7
O=C(C1CCN(S(=O)(=O)c2cccc3cccnc23)CC1)N1CCN(c2ccc(Cl)cc2)CC1 | nt | -1.3
O=C1CCc2cc(S(=O)(=O)NC(Cc3ccccc3)C(=O)NCC3CCCO3)ccc2N1 (configuration not stated) | nt | -3.2
CCCCCCCCNC(C)C(O)c1ccc(SC(C)C)cc1 (configuration not stated) | i | 0.0
O=C(CSc1nnc(-c2ccncc2)n1-c1ccc(F)cc1)NC(=O)NCc1ccco1 | i | -7.8
CCOc1ccccc1NC(=O)CCC(=O)O | nt | 1.8
CN(CCCNC(=O)Cn1cc2c(n1)CCCC2)C1CCCCC1 | nt | -0.3
Cc1cc(S(=O)(=O)N2CCN(Cc3ccccc3)CC2)c(C)s1 | nt | -1.4
CCOC(=O)CN1C2=NCCN2c2ccccc21 | i | -0.4
O=C(NCc1ccccc1)C1CCCN1S(=O)(=O)c1cccc2cccnc12 (configuration not stated) | i | 0.5
COc1ccc(-n2nnnc2S(=O)(=O)CC(=O)N2CCCCC2)cc1 | nt | 0.1
COc1ccc(C2C(C#N)=C(N)Oc3n[nH]c(-c4ccccn4)c32)c(OC)c1OC (configuration not stated) | nt | -1.5
CCSc1nnc(N2C(=O)CC(c3ccsc3)C3=C2CC(C)(C)CC3=O)s1 (configuration not stated) | i | -0.1
CCCCCOC(=O)C1C2C=CC3(CN(c4ccccc4C)C(=O)C13)O2 (configuration not stated) | nt | 7.0
Cn1cc(/C=N/n2cnc3sc4c(c3c2=O)CCCC4)c2ccccc21 | nt | -1.4
CC(=O)CCc1ccc(OCCCCn2cncn2)cc1 | i | -2.0
CCN1CCN(C(c2cccs2)C(C)NC(=O)c2ccccc2F)CC1 (configuration not stated) | nt | 0.1
O=c1nc2c(-c3ccccc3F)n[nH]n2c2ccccc12 | nt | 0.6
COc1ccccc1C(=O)Nc1c2c(nn1-c1cccc(C)c1C)CS(=O)C2 (configuration not stated) | nt | 2.4
O=C(Cn1nc(Cc2cccnc2)c2ccccc2c1=O)NCC1CCCO1 (configuration not stated) | i | -2.4
CCOC(=O)CCCCC(=O)c1[nH]c(=O)[nH]c1Cn1ccnc1 | nt | 2.2
CC1CCN(S(=O)(=O)c2ccc3c(c2)c(=O)c(C(=O)NC2CCCC2)cn3C)CC1 | nt | -4.8
Cn1c(C(=O)NCC2CCCO2)cc2c(=O)n(C)c3ccccc3c21 (configuration not stated) | i | -0.9
O=c1oc2ccccc2c(O)c1CN1CCCCC1 | i | -0.2
Cc1ccc(S(=O)(=O)Cc2ccc(C(=O)N3CCCC3)o2)cc1 | nt | 0.2
COc1cccc(C(=O)NC2=NCCS2)c1 | i | 0.1
COc1ccc(CCN2CC(O)=C(c3nc4ccccc4c(=O)[nH]3)C2=N)cc1OC | i | -0.2
CCS(=O)(=O)N1CCCC(C(=O)NCCCN2CCCC2=O)C1 (configuration not stated) | nt | -1.2
COC(=O)CCC(=O)Nc1cccc(Br)c1 | i | -2.1
COc1ccccc1N1CCN(C(=O)c2ccc(S(=O)(=O)N3CCCCCC3)cc2)CC1 | i | -1.3
CCOc1ccccc1C1C(C#N)=C(N)Nc2onc(-c3ccccc3)c21 (configuration not stated) | nt | -1.0
CCc1nn(C(C)C(=O)Nc2cccc(C)c2C)c(=O)c2cc3occc3n12 (configuration not stated) | nt | -1.1
O=C(NCCCN1CCc2ccccc2C1)C1CCN(c2nnc(-n3cccc3)s2)CC1 | nt | 0.6
CCc1ccc(C2CC(c3ccccc3C)n3nc(N)nc3N2)cc1 (configuration not stated) | nt | 0.0
Cn1c(=O)c2cc(S(=O)(=O)NC(C(=O)N3CCCCCC3)c3ccccc3)ccc2n(C)c1=O (configuration not stated) | nt | 0.4
COc1ccccc1NC(=O)Cn1cnc2c(cnn2-c2ccc(C)c(C)c2)c1=O | nt | 0.4
O=CNCC(=O)NC1CCCCCC1 | nt | 1.4
CCOC(=O)Cc1nnc(NC(=O)C(CC)Sc2nc(C)cc(=O)[nH]2)s1 (configuration not stated) | nt | -0.3
O=C(CSc1nc2c(c(=O)n1-c1ccc(Cl)cc1)SCC2)NCc1ccco1 | nt | 1.7

Filtered by structure: those above containing a thiophene ring, fused or not.
SMILES | VCAM-1 rise | 26S disassembly
CCOC(=O)c1sc2nc(N3CCCC3)c3c(c2c1N)CC(C)(C)OC3 | i | 2.4
COC(=O)C1=C(N)OC2=C(C(=O)CCC2)C1c1cccs1 (configuration not stated) | i | -0.6
O=C(NCCN1CCOCC1)c1cc(-c2cccs2)on1 | nt | 0.3
CCOC(=O)c1sc2nc(SCC#N)n(CC3CCCO3)c(=O)c2c1C (configuration not stated) | nt | 3.8
COc1ccc(OC)c(NC(=O)C2CCN(S(=O)(=O)c3cccs3)CC2)c1 | nt | 0.8
Cc1c(C(=O)N2CCN(c3ncccn3)CC2)sc2nc3n(c(=O)c12)CCCC3 | nt | 0.3
Cc1csc(NC(=O)C(NS(=O)(=O)c2ccc(Br)s2)c2ccccc2)n1 (configuration not stated) | nt | -2.3
CN(c1ccccc1)c1nc2ccsc2c(=O)s1 | nt | -0.1
Cc1cc(S(=O)(=O)N2CCN(Cc3ccccc3)CC2)c(C)s1 | nt | -1.4
CCSc1nnc(N2C(=O)CC(c3ccsc3)C3=C2CC(C)(C)CC3=O)s1 (configuration not stated) | i | -0.1
Cn1cc(/C=N/n2cnc3sc4c(c3c2=O)CCCC4)c2ccccc21 | nt | -1.4
CCN1CCN(C(c2cccs2)C(C)NC(=O)c2ccccc2F)CC1 (configuration not stated) | nt | 0.1

Screens: PubChem, several laboratories

An excerpt; the hit share may differ from the screen's.
